Bioassay records as filed in PubChem BioAssay.
RE007 growth inh: less growth of the S. pombe RE007 Vpr strain; S. pombe RE007 Vpr strain, BacTiter-Glo ATP luminescence, 24 h; control for the full effect not named in the record; Potency, µM (highest dose often 92.2 µM), inactives show at the highest dose activity change, negative = less growth; 0.21% of 360,000 active; active = well fitted falling curve with a large enough effect; inconclusive = small, poorly fitted or top-dose-only effect; inactive = no such curve, though single readings can be large or run the other way;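 note: nearly all actives have a fitted effect of over 50% in size; the assay follows cell death caused by Vpr and the record does not say whether a fall means rescue or toxicity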
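Fission yeast strain RE007, carrying one chromosomally integrated HIV-1 vpr copy, was seeded at OD 0.01 in PMG+AL medium with 23 nL pinned compound. After 24 h at 30 °C and 99% humidity, viability was read by BacTiter-Glo luminescence.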
StopGo reporter: lowers the luciferase signal of an FMDV 2A StopGo reporter; Potency, µM (doses to about 57.9 µM), for the others: at the highest dose signal change, negative = less light; AID 1159524; 1.2% of 410,000 active; human cells with a luciferase reporter of 2A StopGo recoding; control for the full effect not named in the record; active = well fitted falling curve with a large enough effect; inconclusive = small, poorly fitted or top-dose-only effect; inactive = no such curve, though single readings can be large or run the other way; tested in HEK293T cells; note: nearly all actives have a fitted effect of over 45% in size; luciferase light after 4 h
An asterisk follows results filed as active; ? = inconclusive; [ ] = remark or other dose. % is set by controls: 0 for no effect and ±100 for the full control effect; potency is the fitted concentration of half-maximal effect. Not all compounds are listed; the hit share may differ from the screen's.

SMILES	RE007 growth inh	StopGo reporter
CCOC(=O)[C@]12CCCC=C1N(Cc1cccc3ccccc13)C(=O)[C@H](CC(=O)N1CCN(C(=O)c3ccco3)CC1)C2	12%	-26%
CCOC(=O)C1(C)CCCN(C(=O)c2ccc3snnc3c2)C1 (stereo not drawn)	-5%	13%
OC[C@H]1O[C@@](CO)(O[C@H]2O[C@H](CO)[C@@H](O)[C@H](O)[C@H]2O)[C@@H](O[C@H]2O[C@H](CO)[C@@H](O)[C@H](O)[C@H]2O)[C@@H]1O	9%[18.4 µM]	-13%
C[C@@H]1CN([C@@H](C)CO)C(=O)CCCn2nncc2CO[C@@H]1CN(C)C(=O)Nc1ccnc(N2CCOCC2)c1	7%	-6%
CCN(Cc1ccccc1)c1cc2c(c3c1ccn3C)C1CCC2C1 (stereo not drawn)	-27%	-15%
COc1cccc(OC)c1C(=O)N1CCN(Cc2ccccc2F)CC1	7%	-8%
Cc1cccc(C)c1-n1nnnc1C(c1ccccc1)N1CCN(C/C=C/c2ccccc2)CC1 (stereo not drawn)	-4%	0%
CCCCCN(C(=O)CCC(=O)OC(C)C(=O)Nc1ccccc1C)c1c(N)n(CCCC)c(=O)[nH]c1=O (stereo not drawn)	13%	0%
O=C1NC[C@H](Cc2ccccc2)N(C[C@@H]2CCCN2C[C@H](Cc2ccc(O)cc2)N2C[C@H](Cc3ccc(O)cc3)N(CC3CCCCC3)C(=O)C2=O)C1=O	-11%	-12%
O=C1NC[C@H](Cc2ccc(O)cc2)N(C[C@H]2CCCN2C[C@H](Cc2ccccc2)N2C[C@H](Cc3ccccc3)N(CCc3ccccc3)C(=O)C2=O)C1=O	-3%	-4%
CCOC(=O)CSc1nc2nc(Cl)c(Cl)nc2[nH]1	-16%	0%
O=C(Nc1ncccn1)c1ccc([N+](=O)[O-])cc1[N+](=O)[O-]	8%	-13%
COCCNC(=O)C1(C)CCCN(C(=O)c2cc(C)on2)C1 (stereo not drawn)	8%[18.4 µM]	0%
CC1(Cc2cccc(C(F)(F)F)c2)C(=O)Nc2c(Cl)ccc(Cl)c21 (stereo not drawn)	-12%	-25%
COC(=O)C[C@H]1CC[C@@H](NC(=O)Nc2ccc3c(c2)OCO3)[C@@H](CO)O1	8%	-9%
COc1ccc(NC(=O)CNCc2cccs2)c(OC)c1	-17%	22%
Cc1c(C(=O)NCc2ccc3c(c2)OCCO3)sc(=O)n1Cc1ccccc1C#N	-4%[18.4 µM]	-23%
CCN(CC(=O)Nc1c(F)cccc1F)C(=O)C1CCN(S(=O)(=O)c2ccccc2C(=O)OC)CC1	-5%	-17%
COCCNc1nc(NCc2cccc(OC)c2)c2sccc2n1	-19%	?
COc1ccc(-c2coc3c(C(=O)Nc4cccnc4)cccc23)c(C)c1	10%[18.4 µM]	20µM*

The final 2 compounds of the part above are carried over, then new ones follow.
SMILES	RE007 growth inh	StopGo reporter
COCCNc1nc(NCc2cccc(OC)c2)c2sccc2n1	-19%	?
COc1ccc(-c2coc3c(C(=O)Nc4cccnc4)cccc23)c(C)c1	10%[18.4 µM]	20µM*
COc1ccc(Cc2c(-c3cccc(Br)c3)nc3ccc(Cl)cn23)c(C)c1	-16%	32%[activator]
CCCNC(=O)C1(C)CCN(Cc2ccc(C)c3ccccc23)C1 (stereo not drawn)	-28%[18.4 µM]	-20%
CCOC(=O)C1(C)CCN1C(=O)c1cccc2ccccc12 (stereo not drawn)	8%[18.4 µM]	-9%
CC(C)OC(=O)N(C)C[C@@H]1OCc2cn(nn2)CCCC(=O)N([C@H](C)CO)C[C@H]1C	44%	0%
CN(C(=O)COC(=O)COc1ccc2ccccc2c1)c1ccccc1	1%	4%
CNC(=O)C1Cc2c(-c3ccccc3Oc3ccccc3)ccnc2O1 (stereo not drawn)	3%	-14%
CCCCOCCCNC(=O)C[C@@H]1C[C@@]2(C(=O)OC)CCCCC=C2N(Cc2ccco2)C1=O	-6%	-18%
COc1ccc(Nc2nc3cc(-c4ccsc4)sc3c(=O)n2C)cc1OC	1%	11%
CC(C)Nc1ncnc2c1ncn2[C@H]1CN(Cc2ccco2)C[C@@H](CO)O1	-2%	-6%
CCCC[C@H]1C2=C3[C@@H](CC(C(=O)OC)=C[C@@H](C(=O)OC)[C@H]3C(C)(C)C2=O)n2c(=O)n(-c3ccccc3)c(=O)n21	1%	-13%

Next section; it opens with the 7 that closed the last part.
SMILES	RE007 growth inh	StopGo reporter
CC(C)OC(=O)N(C)C[C@@H]1OCc2cn(nn2)CCCC(=O)N([C@H](C)CO)C[C@H]1C	44%	0%
CN(C(=O)COC(=O)COc1ccc2ccccc2c1)c1ccccc1	1%	4%
CNC(=O)C1Cc2c(-c3ccccc3Oc3ccccc3)ccnc2O1 (stereo not drawn)	3%	-14%
CCCCOCCCNC(=O)C[C@@H]1C[C@@]2(C(=O)OC)CCCCC=C2N(Cc2ccco2)C1=O	-6%	-18%
COc1ccc(Nc2nc3cc(-c4ccsc4)sc3c(=O)n2C)cc1OC	1%	11%
CC(C)Nc1ncnc2c1ncn2[C@H]1CN(Cc2ccco2)C[C@@H](CO)O1	-2%	-6%
CCCC[C@H]1C2=C3[C@@H](CC(C(=O)OC)=C[C@@H](C(=O)OC)[C@H]3C(C)(C)C2=O)n2c(=O)n(-c3ccccc3)c(=O)n21	1%	-13%
O=S(=O)(CCNCCc1ccccc1)NCc1ccccc1	11%	20%
CCc1nc2c(OCCOc3ccc(F)cc3)cccn2c1N(C)C(=O)c1ccccc1F	-24%	?
Nc1ccn([C@@H]2O[C@H](CNCc3cccc(OC4CCCC4)c3)[C@@H](O)[C@H]2O)c(=O)n1	-26%	-17%
Nc1ccn([C@@H]2O[C@H](CN=C3NS(=O)(=O)c4ccccc43)[C@@H](O)[C@H]2O)c(=O)n1	26%	-8%
CCCC(C)(C)C(=O)N1CCC1(C)C(=O)Nc1ccc(OC)c(OC)c1 (stereo not drawn)	9%	-16%
O=C(O)c1cc(O)ccc1O	2%[18.4 µM]	-22%
CN(C)/N=C/C=C1\CC/C(=C\c2ccc(F)c(F)c2)C1=O	-6%	4%
c1ccc(CN2Cc3ccccc3-n3nncc3C2)nc1	19%	-3%
Cc1ccccc1S(=O)(=O)N(C)C[C@H]1OCc2cnnn2CCCC(=O)N([C@H](C)CO)C[C@H]1C	-19%	-22%
Cc1cc(=O)[nH]c2nc3ccccc3n12	-21%	0%
Cc1csc(NC(C)c2nc3cc(C(F)(F)F)ccc3n2CCOCCO)n1 (stereo not drawn)	-11%	-20%
O=C(NCCN1CCNC1=O)c1ccc2sc([C@H]3C[C@H](O)[C@@H](CO)O3)nc2c1	-7%	-12%
CCc1nc(SCc2cc(=O)[nH]c3ccccc23)c2c(C)c(C)sc2n1	12%	-18%
CCCCCCCCN1C(=O)[C@H](CC(=O)NCCC(C)C)C[C@@]2(C(=O)OC)CCCCC=C12	1%	-13%
Cc1cccc(Cn2c(NC3CCCC3)nc3c2c(=O)[nH]c(=O)n3C)c1	-7%	-8%
COc1cccc(C(=O)N2CCC[C@H]2C(=O)N2CCC[C@H]2C(=O)N[C@@H](C)c2ccccc2)c1	4%	-20%
COc1ccc2ccccc2c1C=NN1CCCCC1	-23%	-14%
COCCN1C[C@@H](CO)O[C@@H](n2cnc3c(NC4CC4)ncnc32)C1	-5%	-2%
COc1cc(F)ccc1-c1csc(C(O)(c2ccccc2)C(F)(F)F)n1 (stereo not drawn)	?	-18%
O=C(O)Cn1nnc(-c2ccccc2)c1COc1ccccc1	16%	-24%
COc1ccc(C(C#N)=C2C=CC(=NO)c3ccccc32)cc1	-5%[18.4 µM]	25%
Cc1cccc(C)c1-n1nnnc1C(C1CC1)N1CCN(C/C=C/c2ccccc2)CC1 (stereo not drawn)	-1%	-9%
CN(C(=O)c1ccc(NC(=O)Cc2cccc(NC(=O)C3CCN(C(=O)C4CCCC4)CC3)c2)cc1)C1CC1	-22%	17%
Fc1cccc(Cc2c(-c3ccc(Cl)cc3)nc3c(Cl)cc(C(F)(F)F)cn23)c1	23%	34%[activator]
O=C(NC(Cc1nn[nH]n1)C(=O)OCc1ccccc1)OCc1ccccc1 (stereo not drawn)	0%	-14%
CC1(C(=O)NCc2ccc(C(F)(F)F)cc2)CCN1Cc1cc2ccccc2o1 (stereo not drawn)	-19%[18.4 µM]	-21%
CCNC(=O)C1(C)CCN(C(=O)c2cccc3ccccc23)C1 (stereo not drawn)	-3%	-10%
CN1CCC(N2CCN(C3CN(Cc4ccc(F)cc4)S(=O)(=O)C3)CC2)CC1 (stereo not drawn)	-8%	0%
Cn1nc(C(C)(C)C)cc1C(=O)N1CCCC(c2cc(C(=O)NCc3ccccc3)no2)C1 (stereo not drawn)	-7%	?
Clc1ccccc1OCCNc1nc(NCC2CC2)nc2ccsc12	-13%	?
CCCc1nc2ccc(C)cn2c1Cc1ccccc1	-18%	49%[activator]
Cc1cccc(C)c1-n1nnnc1C(c1ccnc2ccccc12)N(CCC#N)Cc1ccccc1 (stereo not drawn)	-8%	?
COC(=O)C1(C(=O)OC)Cc2ccccc2N(S(=O)(=O)c2ccc(C)cc2)C1CC(C)=O (stereo not drawn)	0%	-7%
CC1(C(=O)NS(=O)(=O)c2ccc(Cl)cc2)CCN1C(=O)Cc1cccs1 (stereo not drawn)	-11%	-5%
C[C@@H]1CN([C@@H](C)CO)C(=O)CCCn2nncc2CO[C@H]1CN(C)C(=O)Oc1cccc2ccccc12	8%	-1%
O=C([C@@H]1CC=C[C@@H]2CCN(C3CC3)C(=O)[C@@H]21)N1CCN(c2ccccc2)CC1	10%	-6%
COC(=O)[C@@]12C[C@@H](CC(=O)NCc3cccc(C(F)(F)F)c3)C(=O)N(Cc3ccccc3)C1=CCC(C)(C)C2	2%	-16%
Nc1[nH]c(C(=O)c2ccccc2)c(-c2ccccc2C(F)(F)F)c1C(=O)c1cccs1	12%	-14%
O=C(NCc1nnnn1-c1ccc(F)cc1)c1ccc2c(c1)OCO2	7%	1%
C/C=C1\NC(=O)[C@H](C)NC(=O)[C@@H](NC(=O)[C@H](Cc2ccc(O)cc2)NC(=O)[C@@H](NC(=O)/C(C)=C/C)C(C)C)[C@@H](C)OC(=O)[C@H](CCCc2ccc(O)cc2)NC(=O)[C@@H](CCC(=O)O)NC1=O	-2%	-14%
Cn1nc(C(C)(C)C)cc1N1C(=O)CCC1(C)C(=O)Nc1ccc2c(c1)OCCO2 (stereo not drawn)	6%	10%
COc1ncnc2c1ncn2CCCNCc1ccc2c(c1)OCO2	-3%	0%
CCc1nc2ccc(C(=O)Nc3cccc(NS(C)(=O)=O)c3)cn2c1N(CCC(C)C)CCN(C)C	-20%[18.4 µM]	-13%
CC(C)Nc1ncnc2c1ncn2[C@H]1CN(Cc2ccc3c(c2)OCO3)C[C@@H](CO)O1	10%	-16%
COCCCN1C(=O)C(CC(=O)NCc2cccs2)CC(C(=O)N(C)C)=C1C (stereo not drawn)	9%	-11%
Cc1cn([C@H]2C[C@H](O)[C@@H](CNCc3ccc4ncccc4c3)O2)c(=O)[nH]c1=O	6%	?
Cc1csc(N=Nc2ccc(N(C)C)cc2)[n+]1[O-]	?	-79%
CC(=O)c1ccc(OC2(C)CCN(Cc3csc4ccccc34)C2)cc1 (stereo not drawn)	-6%[18.4 µM]	-3%
CC(=O)Oc1cc2c(cc1OC(C)=O)C(=O)CCCC2	-20%	-19%
COc1ccccc1N1CCN(S(=O)(=O)CCNC(=O)c2ccco2)CC1	7%	-12%

Fetched one by one from the entries so far:
SMILES	RE007 growth inh	StopGo reporter
CC(C)Nc1ncnc2c1ncn2[C@H]1CN(Cc2ccc3c(c2)OCO3)C[C@@H](CO)O1	10%	-16%
COc1ccccc1N1CCN(S(=O)(=O)CCNC(=O)c2ccco2)CC1	7%	-12%

Additional results.
SMILES	RE007 growth inh	StopGo reporter
CCCCNC(=O)C1C(c2ccc(OC)cc2)=Nc2ccccc2N1C(=O)c1cccnc1 (stereo not drawn)	-13%	27%
COc1ccc([C@H]2CC(=O)C[C@@H](CCn3cc(-c4nccn4C)nn3)O2)cc1	3%	-7%
COc1ccc(NC(=O)c2cc(-c3ccc(F)cc3C)n[nH]2)cc1OC	6%[18.4 µM]	19%
CSCCC(c1nnnn1-c1c(C)cccc1C)N1CCC2(CC1)C(=O)NCN2c1ccccc1 (stereo not drawn)	-4%	?
OCC[C@@H]1C[C@H](O)[C@@H](O)[C@]2(OCCc3cc(Cl)ccc32)O1	4%	-4%
CCCCCC(=O)N1C[C@@H](O)[C@H](n2cc(COC(=O)c3ccccc3)nn2)C[C@@H]1c1ccc(Cl)cc1	2%	-17%
C[C@@H]1CN([C@@H](C)CO)C(=O)c2cc(Br)cnc2O[C@H]1CN(C)C(=O)c1ccncc1	-19%	-28%
C[C@@H]1CCCCO[C@H](CN(C)C(=O)Nc2ccc3c(c2)OCO3)[C@@H](C)CN([C@H](C)CO)C(=O)c2cc(NS(=O)(=O)c3ccc(F)cc3)ccc2O1	-10%	0%
COc1ccc(CNC(=O)C2(C)Cc3c(-c4ccc5c(c4)OCO5)ccnc3O2)cc1OC (stereo not drawn)	0%	-21%
COCC(=O)Nc1ccc2c(c1)[C@@H]1C[C@H](CC(=O)OC)O[C@H](CO)[C@@H]1O2	-16%	-9%
